Screening data as filed in PubChem.
PK Bst: modulators of Bacillus stearothermophilus pyruvate kinase | hit rate 1.2% among 51,000 | AID 361 | partly purified Bacillus stearothermophilus pyruvate kinase, luminescence ATP production; ribose 5-phosphate activator present at AC10 | Potency, µM; in the data active means potency below about 11 µM; inconclusive means mostly about 12 µM to 25 µM; inactive means weaker than that;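 the screen sought inhibitors and activators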;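 note: potency is the fitted concentration of half-maximal effect; scaled between full activation by ribose 5 phosphate and full inhibition by luteolin; about four in five hits inhibit and the cells do not say which; series up to 57 µM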
YjeE inh: displaces an ADP probe from E. coli YjeE (TsaE) | hit rate 0.05% among 71,000 | P0AF67 | Potency, µM | purified YjeE, fluorescence polarisation of a bound ADP probe; active = well fitted falling curve; inconclusive = weaker or top-dose-only fall, or a rising curve; inactive = flat or poorly fitted curve;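 note: top concentration of the series not given in the record; excess ADP was the control for the full effect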
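Fluorescence polarization of a BODIPY Texas Red–ADP probe (2 uM) bound to purified YjeE (10 uM) was read after 15 min room-temperature incubation with compounds. Loss of polarization marks inhibitors; ADP serves as titrated control.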
* marks the source's active call; other numbers are inactive results. Some of the compounds tested; count on the stated rates, not on these rows.

Screening COc1ccc(NC(=O)CSc2nnc(C3CC3)n2N)cc1 returned PK Bst >57 and YjeE inh inactive.
For Cc1ccc(C2(C)NC(=O)N(CC(=O)NC(=O)NCCC(C)C)C2=O)cc1 (stereo not given) the results were PK Bst >57 and YjeE inh inactive.
For O=C(OCCOc1ccccc1Cl)c1ccc(-n2cnnn2)cc1 the results were PK Bst >57 and YjeE inh inactive.
For COC(=O)C1=CN(CCCN2CCCC2=O)C=C(C(=O)OC)C1c1cccs1 the results were PK Bst >57 and YjeE inh inactive.
For O=C(c1ccc(C#Cc2ccccc2)o1)N1CCN(c2ccccn2)CC1 the results were PK Bst >57 and YjeE inh inactive.
For c1ccc2c(c1)C(=NCC1CCCO1)NC2=NCC1CCCO1 (stereo not given) the results were PK Bst >57 and YjeE inh inactive.
Screening COc1ccc(C(=O)CSc2nnc(CNc3nc(-c4ccccc4)cs3)n2C)cc1 returned PK Bst >57 and YjeE inh inactive.
COc1ccc(Cl)cc1Nc1nc(C)cc(=O)[nH]1 was read as PK Bst >57 and YjeE inh inactive.
For c1cncc(-c2ccc3ncnc(NC4CCNCC4)c3c2)c1 the results were YjeE inh inactive.
For COC(=O)Nc1ccc(S(=O)(=O)N2CCN(c3ccc(F)cc3)CC2)cc1 the results were PK Bst inactive and YjeE inh inactive.
`CC(C)Cn1c(SCC(=O)NC(=O)Nc2ccc3c(c2)OCCO3)nc2ccccc2c1=O` gave PK Bst >57 and YjeE inh inactive.
Screening CCc1sc(NC(=O)COC)nc1-c1ccccc1 returned PK Bst >57 and YjeE inh inactive.
`CC(C)(C)c1nnc(NC(=O)C2CCN(c3ncccn3)CC2)s1` gave PK Bst >57 and YjeE inh inactive.
`CC(=O)Nc1cc2c(nc1C)nc(C)n2Cc1ccc(Br)cc1` gave PK Bst >57 and YjeE inh inactive.
For CCNC(=O)NC(=O)CSc1cccc(C(F)(F)F)c1 the results were PK Bst >57 and YjeE inh inactive.
`COC(=O)c1ccc(C(=O)OC)c(NC(=O)CN2CCN(c3ccccc3OC)CC2)c1` gave PK Bst >57 and YjeE inh inactive.
`C=CCN(C(=O)CNC(=O)c1ccco1)C(C(=O)NC1CCCCC1)c1ccccc1` (stereo not given) gave PK Bst >57 and YjeE inh inactive.
For COc1cccc(CC(=O)Nc2nccs2)c1 the results were PK Bst >57 and YjeE inh inactive.
`Cc1cc(NC(=O)Cc2cccs2)no1` gave PK Bst >57 and YjeE inh inactive.
O=C(C1CCN(S(=O)(=O)c2ccccc2)CC1)N(CCc1ccccc1)Cc1ccco1 was read as PK Bst >57 and YjeE inh inactive.
`O=C1CCC(=O)N1CCOP1(=O)COc2ccccc2OC1` gave PK Bst >57 and YjeE inh inactive.
Screening COCCn1nnnc1C(c1ccccn1)N1CCN(c2cc(C)ccc2C)CC1 (stereo not given) returned PK Bst >57 and YjeE inh inactive.
For CCOc1ccc(OCC)c(NC(=O)C2CCCN(S(=O)(=O)c3cnc[nH]3)C2)c1 (stereo not given) the results were YjeE inh inactive.
Screening Cc1ccc(NC(=O)/C(CN(C)C)=N\O)cc1 returned PK Bst >57 and YjeE inh inactive.
Screening Cc1cccc(NC2(C(F)(F)F)N=C3SCCN3C2=O)n1 (stereo not given) returned PK Bst >57 and YjeE inh inactive.
For CCCCCCn1c(N2CCN(c3ccccc3)CC2)nc2c1c(=O)[nH]c(=O)n2C the results were YjeE inh inactive.
Screening COc1ccc(CSc2nnc(C)n2N)cc1 returned PK Bst >57 and YjeE inh inactive.
For CCS(=O)(=O)N1CCC(C(=O)Nc2cccc(C(C)=O)c2)CC1 the results were PK Bst >57 and YjeE inh inactive.
Screening COC(=O)C1C(C(C)C)N(c2ccccc2)OC1(C)O (stereo not given) returned YjeE inh inactive.
CCOC(=O)c1oc2ccc(CNCCO)c(Cl)c2c1C was read as YjeE inh inactive.
Screening CCn1c(SCC(=O)N2CCc3ccccc3C2)nc2c1c(=O)n(C)c(=O)n2C returned PK Bst >57 and YjeE inh inactive.
For CCN(CC)S(=O)(=O)c1ccc(C2CNC(=O)C2)cc1 (stereo not given) the results were YjeE inh inactive.
`Cc1nn(CCO)c(C)c1Oc1ccccc1O` gave PK Bst >57 and YjeE inh inactive.
Screening CC(C(=O)NCc1ccccc1)N(CCN1CCOCC1)C(=O)c1snc(C(N)=O)c1N (stereo not given) returned PK Bst >57 and YjeE inh inactive.
Cc1oc(C2CC2)cc1C(=O)O was read as PK Bst >57 and YjeE inh inactive.
COc1ccc(NC(=O)CSc2nnc(-c3ccccc3C)n2C)cc1 was read as PK Bst >57 and YjeE inh inactive.
COc1ccc(CC(=O)Nc2cc(Cl)ccc2O)cc1 was read as PK Bst >57 and YjeE inh inactive.
`O=C1CC(c2ccccc2)CN1Cc1ccccc1` (stereo not given) gave YjeE inh inactive.
For CCOC(=O)N1CCN(Cc2nc3c(c(=O)[nH]c(=O)n3C)n2Cc2cc(C)ccc2C)CC1 the results were PK Bst >57 and YjeE inh inactive.
`O=C(N1CCOCC1)N1CCN(S(=O)(=O)c2ccccc2)C1` gave PK Bst >57 and YjeE inh inactive.
`O=C(OCc1nnc(-c2ccccc2)o1)C1=COCCO1` gave PK Bst >57 and YjeE inh inactive.
Screening O=C(NCc1cccc(Cl)c1)c1cnccn1 returned PK Bst >57 and YjeE inh inactive.
For Cc1ccc2nc(NC(=O)C3CCN(S(=O)(=O)c4ccc5c(c4)oc(=O)n5C)CC3)sc2c1 the results were YjeE inh inactive.
Cc1ccc(S(=O)(=O)NCc2ccc(C(=O)N(C)CCC#N)cc2)cc1 was read as PK Bst >57 and YjeE inh inactive.
COc1ccccc1-n1c(C)nnc1SCC(=O)Nc1cccc(C(C)=O)c1 was read as PK Bst >57 and YjeE inh inactive.
For Cc1c(Cl)cccc1NC(=O)CCN1CCCCCC1 the results were PK Bst >57 and YjeE inh inactive.
O=C(c1ccco1)N1CCN(c2ncnc3c2oc2ccccc23)CC1 was read as YjeE inh inactive.
`CC(NC(=O)Cc1cccs1)C(c1cccs1)N1CCN(c2ccccc2)CC1` (stereo not given) gave PK Bst >57 and YjeE inh inactive.
For O=S(=O)(c1cccs1)n1cccn1 the results were PK Bst >57 and YjeE inh inactive.
O=C(OCc1c(Cl)cccc1Cl)c1ccccn1 was read as PK Bst 3.8* and YjeE inh inactive.
c1ccc2c(c1)ncn2Cc1nnc2sc(-c3ccncc3)nn12 was read as PK Bst >57 and YjeE inh inactive.
For CC1CCN(CCNC(=O)c2ccc3c(=O)n(CCc4ccccc4)c(=O)[nH]c3c2)CC1 the results were PK Bst >57 and YjeE inh inactive.
`Cc1ccc(N2CC(C(=O)N3CCN(C(=O)c4ccco4)CC3)CC2=O)cc1` (stereo not given) gave PK Bst >57 and YjeE inh inactive.
Screening CC1CCCCC1NC(=O)CN1CCN(Cc2ccccc2Cl)C1=O (stereo not given) returned PK Bst >57 and YjeE inh inactive.
Cn1c(CCNC(=O)c2ccco2)nc2cc(NC(=O)c3ccco3)ccc21 was read as YjeE inh inactive.
CCOc1ccccc1NC(=O)CN(c1ccc(C)cc1)S(=O)(=O)c1c(C)noc1C was read as PK Bst >57 and YjeE inh inactive.
For CO[Si](CCCNCCC[Si](OC)(OC)OC)(OC)OC the results were YjeE inh inactive.
Screening O=C(Nc1cccc(Cl)c1)c1cnn2cccnc12 returned YjeE inh inactive.
For COc1ccc(C)cc1Nc1cc(C)nc2ncnn12 the results were YjeE inh inactive.
CC1CCCC(C)N1CCNC(=O)CCn1nc(-c2ccccc2)ccc1=O (stereo not given) was read as PK Bst >57 and YjeE inh inactive.
Cc1ccc(Cn2c(CN3CC(C)OC(C)C3)nc3c2c(=O)[nH]c(=O)n3C)cc1 (stereo not given) was read as PK Bst >57 and YjeE inh inactive.
For Nc1ccc(O)c(-c2nc3ccccc3s2)c1 the results were YjeE inh inactive.
COC(=O)c1cccc(N(C(=O)c2cnccn2)C(C(=O)NCc2ccccc2)c2ccco2)c1 (stereo not given) was read as PK Bst >57 and YjeE inh inactive.
Screening C=CCCC(=O)Nc1ccc(COC(=O)N2CCOCC2)cc1 returned PK Bst >57 and YjeE inh inactive.
CCOC(=O)N1CCN(c2nc(-c3ccc(OC)cc3)no2)CC1 was read as PK Bst >57 and YjeE inh inactive.
Screening CCn1c2ccccc2c2nnc(SCc3cc(=O)n4ccsc4n3)nc21 returned PK Bst >57 and YjeE inh inactive.
`O=C1c2ccccc2C(O)N1c1cccnc1` (stereo not given) gave YjeE inh inactive.
`CCN(CC)c1ccc(N2C(=O)c3ccccc3C2=O)cc1` gave YjeE inh inactive.
COc1ccc(C)cc1NC(=O)CSc1nnc(-c2ccc(C)cc2)o1 was read as YjeE inh inactive.
CCOC(=O)CSc1nnc(CSc2nc(C)cc(C)n2)n1Cc1ccco1 was read as PK Bst >57 and YjeE inh inactive.
`O=C(Cn1c(=O)sc2ccccc21)NCCOc1ccccc1F` gave PK Bst inconclusive and YjeE inh inactive.
For CC1(C)CC(=O)C2=C(C1)OC(N)=C(C#N)C2C1CC=CCC1 (stereo not given) the results were PK Bst >57 and YjeE inh inactive.
`COc1ccccc1N=c1oc2cc(O)ccc2cc1C(N)=O` gave YjeE inh inactive.
`O=C(Nc1ccc2snnc2c1)N1CCSCC1` gave YjeE inh inactive.
Screening O=C1CC2(CON=C2c2ccc(F)cc2)C(=O)N1c1ccc(F)cc1 (stereo not given) returned PK Bst >57 and YjeE inh inactive.
COc1ccc(-c2noc(CSc3nc4ccccc4c(=O)n3-c3ccccc3)n2)cc1 was read as PK Bst >57 and YjeE inh inactive.
Screening COc1ccc(-n2nc3cc(C)c(N)c(Br)c3n2)cc1 returned PK Bst 3.4* and YjeE inh inactive.
CN(C)CC/C=C1\c2ccccc2Sc2ccc(Cl)cc21 was read as YjeE inh inactive.
COc1cccc(-c2nc(CS(=O)(=O)CC(=O)N3CCc4ccccc4C3)c(C)o2)c1 was read as YjeE inh inactive.
Screening Oc1cc2c(cc1O)CN(C(=S)NCCc1ccc(Cl)cc1)CCC2 returned YjeE inh inactive.
COc1cc(CN2CCC(C(=O)NC3CCCC3)CC2)cc(OC)c1O was read as PK Bst >57 and YjeE inh inactive.
`COc1ccc(C2=Nn3c(nnc3-c3ccccn3)SC2)cc1OC` gave PK Bst >26.
Screening CCOC(=O)C1CCCN(c2nc(C)nc3c2oc2ccccc23)C1 (stereo not given) returned PK Bst >57 and YjeE inh inactive.
Screening Cc1ccccc1-n1c(C)nc2ccccc21 returned YjeE inh inactive.
Cn1c2c(c(=O)n(C)c1=O)C(NC(=O)c1ccco1)(C(F)(F)F)C(=O)N2 (stereo not given) was read as PK Bst >57 and YjeE inh inactive.
Screening NC(=O)CC1(CC(=O)O)CCCCC1 returned PK Bst >57 and YjeE inh inactive.
For O=c1c(-c2ccccc2)nc2cnc(N3CCNCC3)nc2n1Cc1cccs1 the results were YjeE inh inactive.
For COc1ccc(OC)c(NC(=O)Cn2cccc2)c1 the results were PK Bst >57 and YjeE inh inactive.
Screening CNC(=O)[C@@]1(C)C=C[C@@H](Cc2ccccc2)N1C(C)=O returned YjeE inh inactive.
O=C(O)c1cc(S(=O)(=O)N2CCCCCC2)ccc1Cl was read as YjeE inh inactive.
For CCCCn1c(SCC(=O)NCc2cccs2)nc2c1c(=O)n(C)c(=O)n2C the results were PK Bst >57 and YjeE inh inactive.
`CCOC(=O)c1ccc(Oc2nc(SC)nc(N(C)C)n2)cc1` gave YjeE inh inactive.
Screening COc1cc(C(=S)N2CCCCC2)ccc1OCC(=O)N1CCCC1 returned PK Bst >57 and YjeE inh inactive.
`Cc1cnc(CNc2cc(-c3ccccc3C)ncn2)cn1` gave YjeE inh inactive.
For COC(=O)c1ccc(Oc2c(C)oc3c(CN4CCN(C)CC4)c(O)ccc3c2=O)cc1 the results were PK Bst >57 and YjeE inh inactive.
C=CCN1C(=O)C(C)(C)Nc2ccccc21 was read as PK Bst >57 and YjeE inh inactive.

An excerpt from above in order of number of heavy atoms, falling.
For COC(=O)c1ccc(Oc2c(C)oc3c(CN4CCN(C)CC4)c(O)ccc3c2=O)cc1 the results were PK Bst >57 and YjeE inh inactive.
For O=c1c(-c2ccccc2)nc2cnc(N3CCNCC3)nc2n1Cc1cccs1 the results were YjeE inh inactive.
Screening COc1cc(C(=S)N2CCCCC2)ccc1OCC(=O)N1CCCC1 returned PK Bst >57 and YjeE inh inactive.
`CCOC(=O)c1ccc(Oc2nc(SC)nc(N(C)C)n2)cc1` gave YjeE inh inactive.
For COc1ccc(OC)c(NC(=O)Cn2cccc2)c1 the results were PK Bst >57 and YjeE inh inactive.
Screening NC(=O)CC1(CC(=O)O)CCCCC1 returned PK Bst >57 and YjeE inh inactive.

(continued)
For COc1cccc2cc(NC(=O)C3CCCCC3)c(=O)oc12 the results were PK Bst >57 and YjeE inh inactive.
For CC12CC(NC(=O)N1c1cccc(C(=O)N3CCN(c4ccccn4)CC3)c1)c1ccccc1O2 (stereo not given) the results were PK Bst >57 and YjeE inh inactive.
Screening CCOc1ccccc1N(C(=O)c1snc(C(N)=O)c1N)C(C(=O)NCCC(C)C)c1ccco1 (stereo not given) returned PK Bst >57 and YjeE inh inactive.
`O=C1OC(N2CCN(c3ccccn3)CC2)c2ccccc21` (stereo not given) gave PK Bst >57 and YjeE inh inactive.

Random excerpt: four compounds from above
For COC(=O)c1ccc(Oc2c(C)oc3c(CN4CCN(C)CC4)c(O)ccc3c2=O)cc1 the results were PK Bst >57 and YjeE inh inactive.
Screening COC(=O)C1C(C(C)C)N(c2ccccc2)OC1(C)O (stereo not given) returned YjeE inh inactive.
Screening COc1cc(C(=S)N2CCCCC2)ccc1OCC(=O)N1CCCC1 returned PK Bst >57 and YjeE inh inactive.
`O=C1c2ccccc2C(O)N1c1cccnc1` (stereo not given) gave YjeE inh inactive.
